Screening results from PubChem.
NS1 inh: qHTS Assay for Inhibitors of Influenza NS1 Protein Function; Potency, µM (highest dose often 46.1 µM), for inactives: at the highest dose activity, positive = more growth; S. cerevisiae slowed by influenza A NS1, growth recovery by OD600; 270,000 compounds, 0.4% hits; active means well fitted rising curve with a large enough effect; inconclusive means small, poorly fitted or top-dose-only effect; inactive means no such curve, though single readings can be large or run the other way; also: nearly all actives have a fitted effect of over 50% in size
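Read-out: OD600 growth recovery of NS1-expressing budding yeast. Cells grown overnight at 30C in -URA glucose medium, washed, resuspended and diluted 1:100 in 2% galactose assay medium, pH 6.0. Same strain lacking NS1 served as positive control.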
LASV entry inh: qHTS for Inhibitors of binding or entry into cells for Lassa Virus; Lassa virus pseudotype entry inhibition, cell reporter; control for the full effect not named in the record; 300,000 compounds, 1.2% hits; Potency, µM (top dose mostly 37.9 µM), inactives show at the top dose activity change, negative = inhibition, most hits filed as inhibitors; AID 540256, 2011; active means well fitted inhibition curve with a large enough effect; inconclusive means small, poorly fitted or top-dose-only effect, or effect the other way; inactive means flat fitted curve, though single readings scatter; tested in HEK293 cells; also: % is scaled to controls: 0 for no effect and ±100 for the full control effect; nearly all actives have a fitted effect of over 50% in size; luciferase read-out
SARS PLpro yeast: qHTS of Yeast-based Assay for SARS-CoV PLP; Potency, µM (highest dose often 32.9 µM), inactives show top-dose activity, positive = growth rescue; AID 485353, 2010; S. cerevisiae expressing SARS-CoV PLpro, growth rescue; control for the full effect not named in the record; 330,000 compounds, 0.19% hits; active means well fitted rising curve with a large enough effect; inconclusive means small, poorly fitted or top-dose-only effect; inactive means no such curve, though single readings can be large or run the other way; also: 0% is about no effect; nearly all actives have a fitted effect of over 55% in size; growth read by luminescence after 48 h
Cruzain inh Det: qHTS Assay for Promiscuous and Specific Inhibitors of Cruzain (with detergent) | 200,000 compounds, 0.43% hits | Potency, µM, inactives show max response, negative = inhibition, actives largely listed as inhibitors | purified cruzain, Z-FR-AMC fluorescence, 0.01% Triton;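 also: plate controls were neutral wells for no effect and buffer without enzyme for full effect; nearly all actives have a fitted effect of over 40% in size; top concentration of the series not given in the record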
Target sequence (P25779 123-467 limits assumed): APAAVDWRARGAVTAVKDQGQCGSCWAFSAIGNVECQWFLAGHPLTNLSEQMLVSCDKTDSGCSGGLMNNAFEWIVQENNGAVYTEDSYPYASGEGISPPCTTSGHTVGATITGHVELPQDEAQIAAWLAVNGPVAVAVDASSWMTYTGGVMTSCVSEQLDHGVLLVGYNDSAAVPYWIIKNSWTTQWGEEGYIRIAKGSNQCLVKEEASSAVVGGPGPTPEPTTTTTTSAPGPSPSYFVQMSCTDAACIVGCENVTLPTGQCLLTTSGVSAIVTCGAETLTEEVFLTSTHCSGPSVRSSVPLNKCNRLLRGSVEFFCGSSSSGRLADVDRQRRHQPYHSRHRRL
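Detergent-containing run (0.01% Triton X-100) in acetate buffer pH 5.5 with 5 mM DTT: enzyme at 1.5 nM final, 15 min compound preincubation at room temperature, then 2 uM Z-FR-AMC substrate. Activity taken as 60 s fluorescence increase at 360/450 nm.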
MARV entry inh: qHTS for inhibitors of binding or entry into cells for Marburg Virus | Marburg virus pseudotyped entry inhibition, cell reporter; control for the full effect not named in the record; about a third of the inactives were read at about 46 µM | Potency, µM (titrated, usually from 37.8 µM), without a hit: at the highest dose activity change, negative = inhibition, usual class: inhibitors | 300,000 compounds, 1.8% hits | AID 540276, 2011; active = well fitted inhibition curve with a large enough effect; inconclusive = small, poorly fitted or top-dose-only effect, or effect the other way; inactive = flat fitted curve, though single readings scatter; tested in HEK293 cells; about a fifth of its hits are not listed in these tables; also: % is scaled to controls: 0 for no effect and ±100 for the full control effect; luciferase read-out
Cruzain inh noDet: qHTS Assay for Promiscuous and Specific Inhibitors of Cruzain (without detergent) | Potency, µM, for the others: max response, negative = inhibition, most hits filed as inhibitors | purified cruzain, Z-FR-AMC fluorescence, no detergent | 200,000 compounds, 2.3% hits | AID 1476, 2009 | Cruzipain (Trypanosoma cruzi), P25779;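 also: plate controls were enzyme without inhibitor for no effect and buffer without enzyme for full effect; nearly all actives have a fitted effect of over 40% in size; top concentration of the series not given in the record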
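Detergent-free condition (0.00005% Triton X-100) in acetate buffer pH 5.5 with DTT. 1.5 nM enzyme and compound were pre-mixed 15 min, then 2 uM Z-FR-AMC substrate added; reaction progress from fluorescence change between first and third reads (60 s).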
RE007 growth inh: qHTS Assay for Inhibitors of the HIV-1 protein Vpr | S. pombe RE007 Vpr strain, BacTiter-Glo ATP luminescence, 24 h; control for the full effect not named in the record | Potency, µM (titrated, usually from 92.2 µM), for inactives: at the highest dose activity change, negative = less growth | 360,000 compounds, 0.21% hits | AID 651644, 2012; active = well fitted falling curve with a large enough effect; inconclusive = small, poorly fitted or top-dose-only effect; inactive = no such curve, though single readings can be large or run the other way;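 also: % is scaled to controls: 0 for no effect and ±100 for the full control effect; nearly all actives have a fitted effect of over 50% in size; the assay follows cell death caused by Vpr and the record does not say whether a fall means rescue or toxicity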
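Fission yeast RE007 carrying one integrated HIV-1 vpr copy, seeded at OD 0.01 in PMG+AL medium with 23 nL pinned compound. Grown 24 h at 30 degrees; viability read by BacTiter-Glo luminescence after 5 min.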
2A StopGo: High Throughput Screening for Foot and Mouth Disease Virus Antivirals | human cells with a luciferase reporter of 2A StopGo recoding; control for the full effect not named in the record | AID 1159524, 2015 | 410,000 compounds, 1.2% hits | Potency, µM (series often up to 57.9 µM), without a hit: at the highest dose signal change, negative = less light; active = well fitted falling curve with a large enough effect; inconclusive = small, poorly fitted or top-dose-only effect; inactive = no such curve, though single readings can be large or run the other way; tested in HEK293T cells; also: % is scaled to controls: 0 for no effect and ±100 for the full control effect; nearly all actives have a fitted effect of over 45% in size; luciferase light after 4 h
* marks the source's active call; other numbers are inactive results; ? = inconclusive; . = no result given; & = joins results of further samples; [ ] = another dose, or the depositor's remark. Unless noted, calls follow the shape of the dose curve; as a rule, active = well fitted curve in the direction sought with a large enough effect; inconclusive = small, poorly fitted or top-dose-only effect, or another doubt; inactive = no such curve, though single readings can be large; an effect the other way counts as inactive or inconclusive. Potency is read from the fitted curve at half-maximal effect.

SMILES	NS1 inh	LASV entry inh	SARS PLpro yeast	Cruzain inh Det	MARV entry inh	Cruzain inh noDet	RE007 growth inh	2A StopGo
CC(=O)N(C(C)=O)S(=O)(=O)c1ccc(N=NN2CCCCC2)cc1	2%	?	21%	-6.3%	-1%	-1%	-8%	24%
CN1CCN(CCC(=O)Nc2ccccc2Cl)CC1	0%	7%	14%	1.1%	-16%	-17%	13%	-17%
COc1cc(CCC(=O)N2CCN(c3ccccc3)CC2)cc(OC)c1OC	3%	7%	-5%	.	-3%[46.1 µM]	.	-21%	-11%
CC(C#N)CCC#N (stereo unspecified)	.	.	-5%	-6.0%	.	1%	3%	-1%
Cn1c(CCCOc2ccc(Cl)cc2Cl)nnc1SCC(=O)Nc1nccs1	13%	15%	-1%	-0.9%	-29%	?	11%	16%
COC(=O)c1cc2ccsc2n1Cc1ccccc1F	13%	21%	-54%	3.4%	-2%	7%	3%	-12%
COc1ccc(C2CC(=O)Oc3c(C(C)C)ccc(C)c32)cc1 (stereo unspecified)	.	.	-35%	-0.2%	.	-2%	-3%	-9%
Cc1occc1C(=O)Nc1sccc1C(N)=O	-100%	-2%[46.1 µM]	-19%	.	15%[46.1 µM]	.	-4%	10%
Cc1cc2cccc(C)c2nc1SCC(=O)NNC(=O)c1ccco1	2%	1%	8%	.	-18%[46.1 µM]	.	9%	-14%
Nc1c(C(=O)NCc2cccs2)nnn1CC(=O)Nc1cccc(Cl)c1	.	-14%	0%	.	-28%[46.1 µM]	.	7%	-3%
COc1ccc(C=O)cc1Cn1ccnc1	4%	.	0%	.	.	.	-11%	15%
COc1ccc(-c2nc3ccccc3c(=O)o2)cc1OC	-26%	10%	9%	-15%	8%	2%	-20%	35%[activator]
Cc1ccc(C(CCN(Cc2ccccc2)C(=O)c2ccco2)c2ccco2)cc1 (stereo unspecified)	19%	-10%	-12%	-20%	-10%	12%	-9%	-3%
CSc1ccccc1NC(=S)Nc1ccccc1C(F)(F)F	1%	10%	-3%	-1.5%	-4%	6%	-17%	4%
CC(C)Oc1ccc(C(=O)N/N=C/c2ccc(-c3ccc(S(=O)(=O)Nc4ncccn4)cc3)o2)cc1	30%	12%	0%	-8.7%	?	6%	0%	9%
CCOC(=O)CC(NC(=O)CCc1c(C)nc2c(-c3ccccc3)c(C)nn2c1C)c1ccc(OC(C)C)cc1 (stereo unspecified)	.	-3%[46.1 µM]	.	-6.1%	?	?	.	-9%
COc1ccc(/C=N/NC(=O)c2ccc(COc3cccc4cccnc34)cc2)cc1O	3%	?	0%	.	?	.	5%	-3%
N#Cc1ccc(OCC(=O)NCC2(N3CCCCC3)CCCCC2)cc1	.	10%	-4%	.	5%[46.1 µM]	.	-11%	-12%
COC(=O)C1C2C=CC3(CN(C(C)C)C(=O)C13)O2 (stereo unspecified)	-8%	.	3%	2.2%	-4%	-7%	-2%	-14%
CCSc1nnc(NC(=O)c2cccn(Cc3ccccc3Cl)c2=O)s1	.	5%[46.1 µM]	.	1.3%	.	8%	.	15%
O=C(NCCc1ccc(Cl)cc1)c1cnc2sc(N3CCOCC3)nn2c1=O	.	5%[46.1 µM]	.	2.1%	.	-5%	.	-21%
COc1cccc(NC2=CC(=O)CC(C)(C)C2)c1	2%	8%	1%	-2.9%	3%	-7%	2%	.
Cc1c(C)n(C(=O)CN2CCC(C)CC2)c2ccccc12	3%	7%	-4%	-1.2%	-1%[46.1 µM]	3%	-13%	0%
COc1cc(C(=O)Nc2ccc(C(=O)c3cccs3)cc2)cc(OC)c1OC	-8%	.	-5%	.	.	.	7%	5%
CCCOC(=O)C1[C@H]2C(=O)N(Cc3ccco3)C[C@]23C=C[C@H]1O3 (stereo partly specified)	16%	3%	-8%	-1.5%	14%	?	0%	3%
Cc1ccc(NC(=O)CSCC(=O)Nc2sccc2C#N)cc1	.	-8%	8%	.	3%	.	15%	2%
Cc1nnsc1C(=O)NNc1ccc(C(C)(C)C)cc1	-4%	0%[46.1 µM]	-2%	.	?	.	9%	-8%
Cc1cc(C)c(C#N)c(SCC(=O)C(C)(C)C)n1	-38%	40%	2%	0.2%	12%	15%	3%	-6%
O=Cc1c(N2CCN(CCO)CC2)nc2ccccn2c1=O	-2%	-3%[46.1 µM]	4%	.	2%[46.1 µM]	.	-27%	-8%
Cc1cc(OCCn2ccnc2)cc(C)c1Cl	-7%	.	-5%	.	.	.	2%	-15%
Cc1ccc(C(=O)NN2C(=O)c3ccc(S(=O)(=O)c4ccc(C(=O)O)cc4)cc3C2=O)cc1	.	-2%	-7%	.	27%[14.2 µM]	.	-4%	23%
COc1cccc(NC(=O)CN2CCC(C)CC2)c1	2%	11%	-6%	1.1%	5%	-5%	-7%[3.69 µM]	20%
Cc1cc(C)cc(N2CCn3c2nc2c3c(=O)n(CCCc3ccccc3)c(=O)n2C)c1	.	15%[46.1 µM]	.	-1.7%	.	5%	.	-19%
COc1ccccc1/C=C1\SC(=S)N(CCC(=O)NNC(=O)c2ccccc2O)C1=O	18%	-10%	4%	.	-3%	.	-8%	-20%
CN(C)c1ccc(C(=O)Nc2nnc(-c3ccc(Cl)cc3)o2)cc1	-9%	.	-1%	-7.3%	-1%	?	-6%	0%
Cc1cccc(-c2nnc(SCC#N)n2Cc2ccccc2)c1	-7%	-5%	1%	-2.3%	-11%	-4%	-5%	0%
CC(C)Cn1c(=O)c2sccc2n2c(CCCC(=O)Nc3ccc(Cl)cc3)nnc12	.	21%[46.1 µM]	.	-0.2%	.	-4%	.	-3%
Cc1c(Br)c([N+](=O)[O-])nn1CC(=O)NCc1cccs1	9%	6%	4%	1.8%	?	7%	2%	0%
Cc1cc(CCN2CCC(=O)NC2=O)ccc1OC(C)C	-2%	5%	11%	0.8%	4%	7%	8%	.
O=c1cc(Cl)nc2ccccn12	.	8%[46.1 µM]	.	.	-2%[46.1 µM]	.	3%	-6%
Cc1ccc(C(=O)NCCNS(C)(=O)=O)cc1	0%	.	0%	.	.	.	1%	7%
CC(C)(C)C(=O)Nc1ccc(-c2cnco2)cc1	1%	13%	-1%	.	9%	.	-7%	36%[activator]
COc1cc(NC(=O)C2CCCN2S(=O)(=O)c2cccc3cccnc23)cc(OC)c1OC (stereo unspecified)	-8%	-24%	-1%	0.1%	-9%	-25%	9%	-17%
COc1cc(OC)cc(C(=O)Nc2ccc(-c3nc4ccccc4o3)c(O)c2)c1	-13%	-13%	4%	-0.9%	0%	?	-10%	.
O=C(NCc1ccccc1)OCCN1CCN(Cc2ccccc2)CCC1=O	0%	-1%	-3%	-0.3%&-1.0%	?	0%&-5%	-6%	-20%
Cc1cc(=S)nc(-c2ccccn2)[nH]1	-1%	-22%	?	.	?	.	4%	?
Fc1ccc(CSc2nc3ccccc3[nH]2)c2ccccc12	-49%	-1%	-44%	-6.8%	-11%	?	13µM*	-12%
CCOc1ncccc1C(=O)OCC(=O)c1cc(OC)ccc1OC	-3%	0%[46.1 µM]	0%	.	0%[46.1 µM]	.	-12%	-22%
CC(C)c1ccc(CN2CCN(C(=O)CCl)CC2)cc1	.	?	1%	.	?	.	9%	18µM*
CCCCC(=O)Nc1ccc(OCc2cc(=O)n3ccc(C)cc3n2)cc1	.	-2%[46.1 µM]	.	-0.8%	.	-10%	.	0%
CC1=C[C@@H]2c3cccc4[nH]cc(c34)C[C@H]2N(C)C1	3%	-13%	-4%	.	-8%[46.1 µM]	.	3%	-5%&-6%
O=C(Cn1cnc2ccccc2c1=O)c1c[nH]c2ccccc12	-13%	-8%	-11%	1.2%	2%[46.1 µM]	-6%	11%	2%
O=C(COC(=O)CNS(=O)(=O)c1ccc(F)c(F)c1F)NC1CCCC1	.	10%[46.1 µM]	-1%	.	17%	.	-11%	5%
Fc1ccc(CSc2nnc(-c3cccnc3)o2)cc1	-31%	.	-1%	.	.	.	-11%	33%[activator]
Cc1ccc(Cn2c(=O)n(CCC(=O)NCc3ccc4c(c3)OCO4)c(=O)c3ccccc32)cc1	0%	9%	2%	0.2%	-12%	?	7%	24%
COc1ccc(OC)c(-n2c(N)c(C(=O)NCC3CCCO3)c3nc4ccccc4nc32)c1 (stereo unspecified)	?	?	1%	-14%	?	?	9%	?
CCOc1ccc(CC(=O)Nc2ccc(NC(=O)c3ccco3)cc2)cc1OCC	.	-16%	0%	.	?	.	1%	8%
C=CCNCC(=O)Nc1sc2c(c1C(=O)Nc1ccc(OC)cc1OC)CCC2	2%	.	0%	.	.	.	5%	-27%
C1CCC(n2nnnc2CN2CCCC2)CC1	-1%	-1%	-1%	0.9%	-19%	0%	-24%	-25%
COc1ccc2oc(C(=O)OCC(=O)NC3CC3)c(C)c2c1	-14%	.	2%	.	.	.	-2%	35%[activator]
Remaining list, next part
SMILES	NS1 inh	LASV entry inh	SARS PLpro yeast	Cruzain inh Det	MARV entry inh	Cruzain inh noDet	RE007 growth inh	2A StopGo
COc1ccccc1CN1CCN(Cc2nc(Cc3ccccc3)no2)CC1	-1%	-20%	1%	.	-7%[46.1 µM]	.	-24%	-16%
COC(=O)Nc1nnc(/C=C/c2ccc(OC)cc2)s1	-1%	?	-27%	3.8%	-26%	-11%	-15%	17%
CN(C)c1ccc(C(=O)N/N=C/C23CC[C@@H](O)CC2(O)CC[C@@H]2[C@@H]3CCC3(C)C(C4=CC(=O)OC4)CCC23O)cc1 (stereo partly specified)	-4%	.	1%	.	.	.	-9%	?
Cc1oc(/N=C/c2ccc(Cl)cc2Cl)c(C#N)c1C	4%	17%	3%	-3.2%	20%	-6%	1%	8%
COc1ccc(NC(=O)CN(C)S(=O)(=O)c2ccc(C)cc2)c([N+](=O)[O-])c1	11%	-3%	-9%	-0.8%	8%	3%	3%	-3%
COc1ccc(CN2CCN(C(=O)c3ccc4c(c3)CCC4)CC2)cc1OC	.	-18%	-5%	.	-18%	.	6%	?
Cc1ccc(Nc2ncccc2C(=O)NCc2cccs2)c(C)c1	-86%	?	-16%	-5.4%	5%	-3%	-17%[3.69 µM]	6%
